# High-throughput results deposited in PubChem BioAssay by several laboratories.
# YopH inh: inhibitors of Yersinia enterocolitica YopH tyrosine phosphatase | fluorescence Ex485/Em525 | inhibition, %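 (about 10 µM by stock and volumes)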 | 140,000 compounds, 0.16% hits;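 active = inhibition of 50% or more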;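 note: controls were vehicle for no effect and minimum signal wells for full effect; inactives centre near -20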
# RecA splice inh: Mtb RecA intein splicing inhibition; P9WHJ3; cell-free RecA intein splicing, fluorescence; inhibition, %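 (about 9 µM by stock and volumes)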; 290,000 compounds, 0.75% hits; in the data active = inhibition above about 30%; inconclusive = no clear call, values can overlap the other calls;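 note: 0% = vehicle wells and 100% = reference inhibitor control wells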
# Target sequence (P9WHJ3 whole entry, looked up, canonical isoform): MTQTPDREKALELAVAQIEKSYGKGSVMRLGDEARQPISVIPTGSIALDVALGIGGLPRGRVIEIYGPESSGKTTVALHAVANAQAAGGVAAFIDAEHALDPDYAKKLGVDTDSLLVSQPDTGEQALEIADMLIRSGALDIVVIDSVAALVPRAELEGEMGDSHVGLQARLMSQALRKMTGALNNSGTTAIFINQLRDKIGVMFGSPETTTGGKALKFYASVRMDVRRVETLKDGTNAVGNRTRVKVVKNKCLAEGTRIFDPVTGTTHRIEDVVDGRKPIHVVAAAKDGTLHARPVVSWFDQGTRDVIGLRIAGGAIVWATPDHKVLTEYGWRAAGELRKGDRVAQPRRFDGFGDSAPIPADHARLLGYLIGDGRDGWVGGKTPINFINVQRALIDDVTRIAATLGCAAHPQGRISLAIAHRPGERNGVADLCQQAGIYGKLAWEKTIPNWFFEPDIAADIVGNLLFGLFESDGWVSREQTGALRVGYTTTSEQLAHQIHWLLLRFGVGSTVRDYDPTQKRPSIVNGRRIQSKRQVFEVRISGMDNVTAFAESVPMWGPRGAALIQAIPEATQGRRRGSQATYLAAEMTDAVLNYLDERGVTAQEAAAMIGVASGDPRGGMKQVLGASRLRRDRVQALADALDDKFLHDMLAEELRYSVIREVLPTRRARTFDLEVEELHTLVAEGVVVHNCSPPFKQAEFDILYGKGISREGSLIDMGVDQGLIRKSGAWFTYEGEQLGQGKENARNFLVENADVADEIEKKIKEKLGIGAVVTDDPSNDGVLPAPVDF
# Mtb growth: M. tuberculosis H37Rv growth inhibitors, H37Rv strain (AID 1626) | M. tuberculosis H37Rv growth inhibition; higher % means a stronger effect | inhibition, % at 10 µM; hits with a dose series show IC50 in µM | 220,000 compounds, 0.95% hits;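 active = confirmed in a dose series; inconclusive = inhibition above 80% but not taken into the dose series; inactive = below 80% or under 30% at every dose of the series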;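 note: bacteria incubated seven days before Alamar blue readout; 0% = bacteria only wells and 100% = bacteria with antibiotic wells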
# Arbovirus inh: antivirals against arbovirus infection; arbovirus infection cell-based antiviral screen; inhibition, % at 10 µM; 200,000 compounds, 0.37% hits; AID 1251;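 active = inhibition from about 30%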;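 note: bluetongue infection of BSR cells; cell survival read as ATP light after 72 h; 0% = infected wells without compound and 100% = uninfected wells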
# Mtb bLac sens: beta-lactam sensitization of Mtb H37Rv | M. tuberculosis H37Rv growth with meropenem, percent inhibition; hits of this screen are not shown here | 330,000 compounds, 0.27% hits | inhibition, % at 25 µM;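 active = about 74% or more and at least 40 points above the plate without the antibiotic, then above 30% in a dose series; inconclusive = first-round hits that could not be retested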;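 note: growth measured after seven days incubation then overnight dye step; 0% = bacteria only wells and 100% = bacteria with antibiotic; twin plates without the antibiotic show which effects depend on it; some results filed as inactive read as strong as hits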
# Arbovirus inh repeat: also measured in Arbovirus inh; calls as there; inhibition, %; measured here: 10K subset replicate screen; many hits read low in the repeat;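 first of two repeat runs on a subset; 0% = infected and 100% = uninfected wells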
# Active calls of the source: *; ? = inconclusive; nt = not tested or not shown. Some of the compounds tested, so the mix of outcomes need not match the whole.
SMILES,YopH inh,RecA splice inh,Mtb growth,Arbovirus inh,Mtb bLac sens,others
COc1ccc(C(=O)N2CCC3(CC2)NCCc2[nH]cnc23)cc1,nt,-0.2,nt,nt,-5.9,
O=C(O)C(NC(=O)c1ccccc1)=C(Cl)Cl,-28.7,-8.2,-4.0%,nt,1.2,
Cc1cc(/C=C2\SC(N)=NC2=O)c(C)n1-c1ccc(F)cc1,nt,-0.5,1.7%,2.2,-2.4,
CCc1nc(N2CCN(C(=O)c3ccco3)CC2)c2oc3ccccc3c2n1,-17.5,5.2,7.8%,-31.6,?,
O=C1CC(=O)N(Cc2ccccc2)C(=S)N1,nt,-0.5,nt,nt,-1.9,
COc1ccc(S(=O)(=O)N2CCCCC2C(=O)O)cc1OC (configuration not stated),-36.8,-0.3,-12.0%,5.2,-2.8,Arbovirus inh repeat=-0.5
CC1CC(C)CN(S(=O)(=O)c2ccc(C(=O)N3CCN(c4ccccc4)CC3)cc2)C1 (configuration not stated),-38.1,2.0,-3.2%,-2.3,3.6,
O=C(CSc1nccc(=O)[nH]1)Nc1ccc2c(c1)OCCO2,nt,-3.1,31.1%,-2.6,49.8,
Cc1ccc2c(c1)C1CN(C)CCC1N2C(=O)c1ccc(Br)o1 (configuration not stated),5.0,3.1,-1.9%,12.5,-17.8,
O=C(NO)c1cc(OCC(F)(F)F)ccc1OCC(F)(F)F,-17.6,-3.4,-1.4%,-4.1,10.2,
Cn1c(SCC(=O)NC(=O)c2cccc([N+](=O)[O-])c2)nnc1-c1ccc(F)cc1,-9.2,-0.4,5.4%,3.0,3.0,
COc1ccc(Cl)cc1C(=O)NNC(=O)c1ccncc1,nt,-3.0,nt,nt,4.9,
CCn1nc(C)c(CNC(=O)C2CCC(=O)N(CCc3ccc(Cl)cc3)C2)c1C (configuration not stated),nt,-5.0,nt,nt,-3.7,
CCOC(=O)c1ccc(NC(=O)Cn2ccc([N+](=O)[O-])n2)cc1,nt,0.2,83.9%,-0.7,79.1,
Cc1ccc(N2CCN(C(=O)c3cc(C(=O)c4ccccc4C)c[nH]3)CC2)c(C)c1,nt,3.3,15.8%,-18.8,5.9,
COc1ccc(CN2CCN(C(=O)c3cccc4ccccc34)CC2)cc1OC,nt,0.3,nt,nt,5.9,
CCOc1ccc(N(C)C(=O)CCc2nnc3ccc(N4CCC5(CC4)OCCO5)nn23)cc1,nt,-2.1,nt,nt,2.7,
N#C/C(=C\c1cccs1)Sc1nc2ccccc2s1,-20.2,-5.7,3.5%,-17.6,-9.7,
COc1ccc(C(=O)NC(=S)NNC(=O)c2cccc(C)c2)cc1,nt,5.3,nt,nt,98.4,
CCN1CCN(c2c(Cl)cccc2NC(=O)c2cc3ccccc3o2)CC1,nt,-1.0,nt,nt,10.6,
Cc1ccc(S(=O)(=O)NCCC(=O)Oc2ccc3ccc(=O)oc3c2)cc1,nt,-62.5,22.0%,nt,30.4,
Nc1nonc1C(=O)N/N=C/c1ccc([N+](=O)[O-])o1,nt,-7.5,?,-7.1,100.0,
Cc1cccc(NC(=O)CN(C)S(=O)(=O)c2ccccc2)n1,0.5,2.3,-8.3%,7.7,-4.6,
CCn1c(=N)n(CC(=O)c2cccc([N+](=O)[O-])c2)c2ccccc21,-18.3,0.9,8.4%,2.7,-3.6,
CN(C)c1cccc(C(=O)OC(C(=O)Nc2ccc([N+](=O)[O-])cc2Br)c2ccccc2)c1 (configuration not stated),-21.8,0.0,0.1%,9.3,4.5,

# Some of these compounds in order of molecular weight, ascending.
SMILES,YopH inh,RecA splice inh,Mtb growth,Arbovirus inh,Mtb bLac sens,others
COc1ccc(C(=O)NC(=S)NNC(=O)c2cccc(C)c2)cc1,nt,5.3,nt,nt,98.4,
Cc1ccc2c(c1)C1CN(C)CCC1N2C(=O)c1ccc(Br)o1 (configuration not stated),5.0,3.1,-1.9%,12.5,-17.8,
CCc1nc(N2CCN(C(=O)c3ccco3)CC2)c2oc3ccccc3c2n1,-17.5,5.2,7.8%,-31.6,?,
CN(C)c1cccc(C(=O)OC(C(=O)Nc2ccc([N+](=O)[O-])cc2Br)c2ccccc2)c1 (configuration not stated),-21.8,0.0,0.1%,9.3,4.5,

# (continued)
SMILES,YopH inh,RecA splice inh,Mtb growth,Arbovirus inh,Mtb bLac sens,others
c1ccc(-c2noc(CSc3nnnn3C3CCCCC3)n2)cc1,-10.5,5.6,-5.3%,-1.4,6.9,
COc1cc2[nH]c(=O)c(C(=O)NCc3ccccc3Cl)c(O)c2cc1OC,nt,5.4,nt,nt,0.2,
Cc1cc(Cl)ccc1N=c1ssnc1Cl,1.4,-2.7,3.0%,8.7,9.5,
CCCCN(C(=O)Cn1nnc2ccccc21)C(C(=O)NCCOC)c1ccccc1 (configuration not stated),2.5,2.0,-3.8%,7.1,-9.7,
Cc1ccc(C(=O)N/C(=C\c2ccc(C(C)C)cc2)C(=O)NCCCN2CCOCC2)cc1,3.8,1.6,12.8%,-12.1,0.7,
COc1ccc(OC)c(S(=O)(=O)Nc2ccccc2C)c1,-24.5,0.4,0.7%,-5.5,0.4,
O=C(C1CCC1)N1CCN(S(=O)(=O)c2cccc(F)c2)CC1,nt,0.5,nt,nt,-2.9,
CCCCCCCNC(=O)C1(CC2CC(c3ccc(Cl)cc3)=NO2)CCN(C(=O)Cc2ccc(F)cc2)CC1 (configuration not stated),nt,1.1,nt,nt,-2.0,
CCOCCn1c(=NC(=O)c2ccc(S(=O)(=O)N3CCOCC3)cc2)sc2cc(S(N)(=O)=O)ccc21,nt,-5.3,nt,nt,0.7,
CN(Cc1nc(Cc2ccccc2F)no1)Cc1cccc2ncccc12,nt,4.3,2.7%,7.1,3.3,
CC(=O)N1CCc2cc(S(=O)(=O)NC(C(=O)Nc3nc(C)cs3)C(C)C)ccc21 (configuration not stated),-5.8,-0.6,1.9%,-0.2,-10.9,
CC1CCc2c(sc(NC(=O)/C=C/c3cccs3)c2C(=O)O)C1 (configuration not stated),nt,0.0,nt,nt,39.4,
O=C(CN1C(=O)c2ccc([N+](=O)[O-])cc2C1=O)NC1CCS(=O)(=O)C1 (configuration not stated),nt,-12.9,nt,nt,-6.2,
O=[N+]([O-])c1cc(CN(CCO)CCO)ccc1O,nt,0.7,-11.7%,nt,0.9,
COc1ccc(NC(=O)CCN2C(=O)/C(=C/c3ccc4c(c3)OCO4)SC2=S)cc1,nt,-1.7,-0.2%,nt,-4.7,
CCc1cc(C(=O)N(CCCOC)c2c(N)n(Cc3ccccc3)c(=O)[nH]c2=O)sc1C,nt,-0.4,nt,nt,-17.7,
Cc1ccc(Cn2c(=O)c3ccccc3n3c(CCC(=O)O)nnc23)cc1,-25.3,-1.9,-9.4%,2.5,-2.0,Arbovirus inh repeat=2.5
O=C(O)CCCc1nc2ccccc2s1,-30.3,0.3,1.2%,-5.9,-12.1,
COc1ccc(CNC(=O)CN(C(=O)c2ccc(CN3CCOCC3)o2)C2CCCC2)cc1,3.8,-1.0,2.5%,0.7,9.0,
CCOc1ccc(-c2ncncc2-c2ccc(OC)c(OC)c2)c(O)c1,nt,1.2,nt,nt,-0.1,
CC(C)(C)c1ccc(S(=O)(=O)N2CCN(c3ccccn3)CC2)cc1,nt,-1.5,nt,nt,4.7,
CC1=C(C(=O)OCC2CCCO2)C(c2coc3ccc(C)cc3c2=O)C2=C(CCCC2=O)N1 (configuration not stated),nt,nt,-6.2%,3.5,-0.2,
COC(=O)NNC(=O)C1CCC(C(=O)NNC(=O)OC)CC1 (configuration not stated),-26.8,-0.6,0.8%,0.7,1.0,
CCCCOc1ccc(C(=O)CCN2CCOCC2)cc1,nt,13.9,0.9%,-19.8,81.6,
Cc1cc(NC(=O)COC(=O)c2ccccc2[N+](=O)[O-])no1,nt,-0.7,-1.2%,-1.2,2.9,

# For reference, part of the list above.
SMILES,YopH inh,RecA splice inh,Mtb growth,Arbovirus inh,Mtb bLac sens,others
c1ccc(-c2noc(CSc3nnnn3C3CCCCC3)n2)cc1,-10.5,5.6,-5.3%,-1.4,6.9,
COc1cc2[nH]c(=O)c(C(=O)NCc3ccccc3Cl)c(O)c2cc1OC,nt,5.4,nt,nt,0.2,
Cc1cc(Cl)ccc1N=c1ssnc1Cl,1.4,-2.7,3.0%,8.7,9.5,
CCCCN(C(=O)Cn1nnc2ccccc21)C(C(=O)NCCOC)c1ccccc1 (configuration not stated),2.5,2.0,-3.8%,7.1,-9.7,
Cc1ccc(C(=O)N/C(=C\c2ccc(C(C)C)cc2)C(=O)NCCCN2CCOCC2)cc1,3.8,1.6,12.8%,-12.1,0.7,

# Next section:
SMILES,YopH inh,RecA splice inh,Mtb growth,Arbovirus inh,Mtb bLac sens,others
Cc1[nH]c(=O)[nH]c(=O)c1/C=N/NC(=O)[C@@H](N)CC(C)C,nt,-6.3,nt,nt,1.7,
Cc1ccccc1N1CCN(S(=O)(=O)c2ccc3ccccc3c2)CC1,nt,3.7,nt,nt,4.0,
CCOc1ccc(OCC)c(NC(=O)C2CCN(S(=O)(=O)c3c(C)[nH]c(=O)[nH]c3=O)CC2)c1,nt,0.9,-5.3%,0.9,2.0,
O=C(Nc1cccc2ccccc12)c1ccc(Br)o1,-187.6,nt,nt,-4.6,nt,Arbovirus inh repeat=-0.1
COc1ccc(-c2c(C)nc3c(-c4ccc(F)cc4)cnn3c2N)cc1,nt,-2.3,nt,nt,-0.8,
CC(C)COc1nc2ccccc2nc1N1CCN(C)CC1,nt,-1.6,nt,nt,6.4,
O=C(CSc1nnc2c(n1)[nH]c1ccccc12)NCc1ccco1,nt,3.0,1.1%,9.4,3.8,
COc1ccc([C@@H]2[C@@H]3C(=O)N(C(C)(C)C)C(=O)[C@@H]3[C@]3(Cc4ccc(Cl)cc4)C(=O)N(c4cccc(Br)c4)C(=O)N23)cc1,nt,4.1,nt,nt,6.2,
Cc1ccsc1/C=N/NC(=O)c1cccs1,-21.6,1.3,1.5%,2.9,45.0,
O=C(O)CC(c1ccccc1)n1cnnn1 (configuration not stated),11.0,-1.6,-4.2%,4.1,-5.0,
Cc1cc(C)c2nc(N3CCC(C(=O)NCC4CCCO4)CC3)sc2c1 (configuration not stated),nt,1.0,nt,nt,?,
CCCn1cnc2c(sc3nc4c(cc32)CSC(C)(C)C4)c1=O,-43.1,0.5,7.8%,-1.9,6.6,
Cc1cccc(Nc2sc(C(=O)c3cc4cc(Cl)ccc4o3)c(N)c2C#N)c1,nt,-5.9,-7.1%,nt,4.7,
CC(=O)Nc1ccc(NS(=O)(=O)c2cc(Cl)sc2Cl)cc1,nt,-2.7,nt,nt,-4.4,
Cc1ccc(CN2CCN(CC(=O)NCc3ccccc3)CC2)cc1,nt,0.2,nt,nt,6.5,
COc1ccc(CCn2c(N)cc(=O)[nH]c2=O)cc1OC,nt,-0.2,2.1%,3.7,-5.4,
COC(C(=O)NC1CC1)c1ccccc1 (configuration not stated),-3.3,0.3,-1.6%,-0.5,1.4,
c1ccc(-c2[nH]ncc2CN2CCc3ccccc3C2)cc1,nt,0.6,-5.2%,nt,-4.0,
CCc1ccccc1NC(=O)CSc1nnc([C@H](CCSC)NC(=O)OC(C)(C)C)o1,-13.2,0.7,-3.1%,3.5,1.5,
O=C1CN(C(=O)N[C@@H](Cc2ccccc2)C(=O)N[C@H](C(=O)O)c2ccccc2)c2ccccc2N1,nt,2.1,nt,nt,-2.6,
COc1ccc(OCCN(C)CC(=O)Nc2ccccc2SC)cc1,nt,0.6,nt,nt,10.0,
COC(=O)CC(NC(=O)CN1CCN(c2ccc(F)cc2)CC1)c1cccc(F)c1 (configuration not stated),nt,2.0,nt,nt,-8.8,
CCOC(=O)c1cc(C)nc(S(C)(=O)=O)c1C#N,nt,12.3,-5.5%,nt,61.1,
CCN(/N=C/c1ccccc1)c1cc(=O)n(C)c(=O)[nH]1,-22.4,1.8,-1.8%,-20.0,0.1,
Cc1cc(N(C(=O)c2ccco2)C(C(=O)NC2CCCCC2)c2ccccc2)ccc1-n1cnnn1 (configuration not stated),-7.2,-2.4,-3.7%,-2.3,0.7,
Cc1ccc(S(=O)(=O)N2CCN(C(=O)c3cc(=O)c4ccccc4o3)CC2)cc1,nt,0.7,-1.4%,0.0,-2.0,

# Molecules from the list above that have a cyano group (three):
SMILES,YopH inh,RecA splice inh,Mtb growth,Arbovirus inh,Mtb bLac sens,others
N#C/C(=C\c1cccs1)Sc1nc2ccccc2s1,-20.2,-5.7,3.5%,-17.6,-9.7,
Cc1cccc(Nc2sc(C(=O)c3cc4cc(Cl)ccc4o3)c(N)c2C#N)c1,nt,-5.9,-7.1%,nt,4.7,
CCOC(=O)c1cc(C)nc(S(C)(=O)=O)c1C#N,nt,12.3,-5.5%,nt,61.1,
